Rango complex inh: qHTS Assay for Inhibitors of Rango (Ran-regulated importin-beta cargo) - Importin beta complex formation; Potency, µM (doses to about 92.2 µM), for inactives: at the top dose inhibition of complex formation; Rango CFP/YFP FRET sensor + importin beta, 45 min; Importin subunit beta-1 (Homo sapiens), Q14974; 0.031% of 340,000 active; active = rising FRET ratio curve, often small or poorly fitted; inconclusive = mostly compound fluorescence or quenching in the first reads; inactive = flat curves in all reads;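 also: potency is read from the fitted curve at half-maximal effect; 0% = DMSO wells and 100% = buffer wells lacking importin beta; nearly all actives have a fitted effect of over 15% in size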
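FRET biosensor (snurportin 1 IBB flanked by EYFP and cerulean), 50 nM, with compound 5 min, then 0.125 microM importin beta in PBS, 1 mM DTT, 0.02% Tween-20, 0.1% BSA. CFP/YFP ratio read after 45 min at room temperature; pre-read flags interference.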
Rango dissoc inh: qHTS Assay for Inhibitors of RanGTP induced Rango (Ran-regulated importin-beta cargo) - Importin beta complex dissociation; Biochemical FRET Rango-importin beta, RanGTP-induced dissociation; Potency, µM (doses to about 46.1 µM), inactives show at the highest dose activity change, negative = inhibition; 0.071% of 340,000 active; AID 540253, 2011; active means falling FRET ratio curve, often poorly fitted, with flat reads before Ran was added; inconclusive means other falling curves, or compound fluorescence or quenching; inactive means flat or rising ratio curve;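 also: potency is read from the fitted curve at half-maximal effect; % of control where 0% means no effect; nearly all actives have a fitted effect of over 45% in size; -100% = wells without RanGTP and RCC1; the record marks most hits as doubtful in a second field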
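Recombinant Rango FRET biosensor (EYFP–snurportin 1 IBB–cerulean CFP10) at 0.1 uM premixed with 0.25 uM importin beta in PBS, 1 mM DTT, 0.02% Tween-20, 0.1% BSA. Compound added 5 min; RanGTP-RCC1 (0.6 uM Ran, 2 mM GTP, 0.2 uM RCC1) then triggers release, read at 45 min.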
GLA inh pH 4.5: qHTS Assay for Inhibitors of Human alpha-Galactosidase at pH 4.5 | Alpha-galactosidase A (Homo sapiens), P06280 | purified enzyme, 4-MU-alpha-Gal fluorescence, pH 4.5 | activity change, negative = inhibition, % at 105 µM | 230,000 tested, under 10 active | AID 1467, 2008; inconclusive = small, poorly fitted or top-dose-only inhibition, or a rising curve; inactive = flat fitted curve, though single readings scatter; no compound was filed as active;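 also: 0% = full activity with enzyme and -100% = basal without enzyme; dose as in the result columns while the protocol names 77 µM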
Target sequence (P06280 whole entry, looked up): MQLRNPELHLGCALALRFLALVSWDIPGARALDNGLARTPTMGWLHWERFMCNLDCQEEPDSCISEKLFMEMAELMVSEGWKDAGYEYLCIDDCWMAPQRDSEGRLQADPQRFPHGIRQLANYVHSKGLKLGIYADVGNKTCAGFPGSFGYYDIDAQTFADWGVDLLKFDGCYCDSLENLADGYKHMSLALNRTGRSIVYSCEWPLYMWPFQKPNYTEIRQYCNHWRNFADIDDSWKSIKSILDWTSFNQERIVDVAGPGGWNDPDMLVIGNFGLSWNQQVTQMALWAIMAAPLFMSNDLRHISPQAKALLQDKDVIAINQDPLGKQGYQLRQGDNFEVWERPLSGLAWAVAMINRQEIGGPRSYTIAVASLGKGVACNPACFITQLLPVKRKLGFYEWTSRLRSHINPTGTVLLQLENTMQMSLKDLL
miR-21 reporter: qHTS Assay for Modulators of miRNAs and/orActivators of miR-21 | HeLa miR-21 FLuc reporter, luciferase, 48 h | Potency, µM (doses to about 38.3 µM), without a hit: top-dose reporter change, positive = more light | 340,000 tested, under 10 active; active = well fitted rising curve with a large enough effect; inconclusive = small, poorly fitted or top-dose-only effect; inactive = no such curve, though single readings can be large or run the other way;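 also: % of control where 0% means no effect; miR-21 action dims this reporter so a rising signal means less miR-21 action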
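HeLa cells endogenously expressing miR-21, stably carrying CMV-driven firefly luciferase with a downstream miR-21 binding site, 2000 cells/well. Titrations up to approximately 40 uM, 48 hours; luciferase luminescence read.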
Numbers without * were called inactive; ? = inconclusive; nt = not tested or not shown; & = joins results of further samples. An excerpt; the hit share may differ from the screen's.

Molecule | Rango complex inh | Rango dissoc inh | GLA inh pH 4.5 | miR-21 reporter
Cc1ccccc1-n1c(SCC(=O)N/N=C/c2c(C)nn(-c3ccccc3)c2C)nc2ccccc2c1=O | -1.4% | -18% | -13 | -2%
Cc1ccc(-n2c(Cn3cnc4ccccc43)nnc2SCC(=O)O)cc1 | 2.6% | -13% | -10 | -4%
O=C(CSc1nc2ccccc2[nH]1)NC(=O)NCc1ccco1 | -3.4% | 0% | 8 | -7%
Cn1c(CSc2ncccn2)nnc1SCC(=O)N1CCCC1 | -4.6% | 9% | 0 | -4%
COc1ccc(CCN(C)C(=S)NC(=O)c2ccc(F)cc2Cl)cc1OC | 0.5% | -1% | 7 | -6%
Cc1cccc(NC(=O)CSc2nc(=O)n(CCCN3CCOCC3)c3c2CCCC3)c1 | 2.9% | 37% | nt | nt
CCOc1nc(C)cc(C)c1S(=O)(=O)c1cccc(C)c1 | nt | nt | 4 | 1%
O=c1cc(-c2cccc([N+](=O)[O-])c2)[nH][nH]1 | -1.1% | -10% | 1 | -5%
CCc1ccc(C(=O)Nc2ccc3nc(C)ccc3c2)cc1 | -6.3% | -17% | nt | -61%
O=NN(CCCl)C(=O)NCCCl | 5.0% | -6% | -3&0 | nt
CCOC(=O)N1CCN(C(=O)COC(=O)c2oc3ccc(OC)cc3c2C)CC1 | 1.6% | 5% | nt | -9%
CCc1ccc(C(=O)Nc2ccc(C)c(NS(C)(=O)=O)c2)cc1 | -1.0% | 0% | 1 | -11%
Cc1ccc(NC(=S)NC(=O)CC2CC(C)(C)OC2=O)cc1 (configuration not stated) | 3.3% | -16% | -2 | -10%
CCOCCn1c(COc2ccccc2)nc2ccccc21 | -0.3% | -2% | -4 | -18%
CN(Cc1cnccn1)Cc1ccccc1OCC(O)CN1CCc2ccccc2C1 (configuration not stated) | -0.1% | 14% | -3 | 3%
Cc1cc(O)c(Sc2ccc(Cl)cc2)c(=O)[nH]1 | -0.8% | 1% | nt | nt
NNc1nc2c(Cl)c(Cl)ccc2s1 | -3.5% | 1% | 5 | -30%
O=C(NNc1ccc([N+](=O)[O-])cc1[N+](=O)[O-])c1ccco1 | 2.1% | 1% | nt | 23%
CCCOc1ccc(N2C(=O)CC(N3CCOCC3)C2=O)cc1 (configuration not stated) | -1.0% | -2% | 5 | 1%
Cc1noc(C)c1C(=O)Nc1cccc(S(=O)(=O)N2CCOCC2)c1 | -2.1% | -20% | nt | nt
COc1cc(CNn2nnnc2N)ccc1OCc1c(Cl)cccc1Cl | 0.3% | 0% | 1 | -4%
Cc1ccc(C)n1NC(=O)c1cccs1 | 1.1% | -9% | -3 | -11%
Cc1nc(C)c(-c2ccc(SCc3ccccc3C)nn2)s1 | 0.1% | -18% | nt | -41%
Cc1cccc(-n2c(C)cc(/C=C3/C(=N)N4C(c5ccccc5)=CSC4=NC3=O)c2C)c1 | -3.5% | -21% | -10 | -6%
CCOC(=O)CSc1nnc(-c2c[nH]c3ccccc23)o1 | -1.5% | -7% | nt | -2%
Cc1occc1C(=O)N1CCCC(Nc2ccc(F)cc2)C1 (configuration not stated) | -0.1% | -2% | nt | 1%
COc1ccc(C)cc1NS(=O)(=O)c1ccccc1 | -0.2% | -2% | nt | nt
O=C(CC1SC(=NC2CCCCC2)NC1=O)Nc1ccccc1 (configuration not stated) | -3.8% | 11% | -30 | -6%
CCC1CCCCN1C(=O)COC(=O)c1n[nH]c2ccccc12 (configuration not stated) | 3.7% | 19% | 8 | -14%
O=C1C2C3C=CC(C4CC34)C2C(=O)N1CCCCN1CCN(c2ccc(F)cc2)CC1 (configuration not stated) | 0.6% | -4% | nt | nt
CCOC(=O)c1c(N2C(=O)C3CC(C)=C(C)CC3C2=O)sc(C)c1C (configuration not stated) | -0.5% | -15% | -10 | 0%
CN(C(=S)NC(=O)c1ccccc1)C1CCCCC1 | -6.0% | -5% | nt | -40%
O=C(NN1CCOCC1)c1ccc(Cl)cc1 | -0.7% | 22% | 8 | -1%
O=C(CCC(=O)Nc1ccc(F)cc1)N/N=C/c1c[nH]c2ccccc12 | 0.0% | 2% | -1 | -1%
Cc1ccccc1OCC(=O)NCCCNC(=O)c1ccco1 | 4.1% | -3% | nt | -5%
Cc1cccc(NC(=O)Cc2noc3ccccc23)c1 | -2.5% | -1% | -1 | -61%
COc1ccc(C(Nc2cc(C)ccn2)c2ccc3ccc(C)nc3c2O)cc1 (configuration not stated) | 0.0% | -18% | -9 | 6%
CC(=Nc1ccc(Br)cc1)c1sc2ccccc2c1O | ? | ? | 0 | -58%
O=C1N=c2ccccc2=C1c1sc(Nc2ccc(O)cc2)nc1O | -4.1% | 7% | -4 | -57%
O=C(NCc1ccco1)C1CCCN(S(=O)(=O)c2cccc3nonc23)C1 (configuration not stated) | ? | -19% | 14 | -5%
CCOc1ccc(NC2c3ccccc3C(=O)N2Cc2ccc3c(c2)OCO3)cc1 (configuration not stated) | 1.0% | 22% | -4 | -20%
COc1ccc2cnnc(SCC(=O)Nc3ccc(C(=O)O)cc3)c2c1OC | -0.1% | 2% | 4 | 0%
C#CCOCCOCCOCCNc1nc(N2CCN(C(=O)Cn3cc(CC(C)O)nn3)CC2)nc(N2CCN(C(=O)[C@H](C)n3cc(CCCN=C(N)N)nn3)CC2)n1 (some centres not stated) | 0.5% | -18% | -3 | -4%
COc1cc(OC)c(NC(=O)N2CCOCC2)cc1Cl | 1.2% | 13% | nt | -3%
CC(Sc1ccccc1)C(=O)NCCc1ccccc1 (configuration not stated) | -6.6% | 12% | nt | -41%
O=C(O)CSc1nnc(-c2ccc(S(=O)(=O)N3CCCC3)cc2)n1Cc1ccco1 | 1.3% | 11% | 2 | -5%
Cc1ccc(C(=O)NNC(=O)CCC(=O)Nc2cccc(Cl)c2C)cc1 | -3.9% | 6% | 0 | -13%
COc1ccc(CNCCS(=O)(=O)NC2CCCC2)cc1 | -1.3% | -1% | nt | nt

Entries of single compounds as entered above. Order of values: Rango complex inh | Rango dissoc inh | GLA inh pH 4.5 | miR-21 reporter
`CCOc1ccc(NC2c3ccccc3C(=O)N2Cc2ccc3c(c2)OCO3)cc1` (configuration not stated) in the list: 1.0% | 22% | -4 | -20%
`COc1ccc2cnnc(SCC(=O)Nc3ccc(C(=O)O)cc3)c2c1OC` in the list: -0.1% | 2% | 4 | 0%

Other records:
Molecule | Rango complex inh | Rango dissoc inh | GLA inh pH 4.5 | miR-21 reporter
Cn1nnc(C(O)CNCc2ccc(Cl)cc2)n1 (configuration not stated) | 3.1% | 0% | 3 | -1%
O=C(c1ccc(NS(=O)(=O)/C=C/c2ccccc2)cc1)N1CCCCC1 | -2.6% | -6% | nt | nt
CCCCCC(=O)NNC1CC(=O)N(c2ccccc2)C1=O (configuration not stated) | -4.9% | -2% | -5 | -14%
COCc1ccc(C(=O)N2CCCC(CCC(=O)NCc3ccccc3F)C2)o1 (configuration not stated) | 6.6% | ? | 2 | 9%
O=C(c1ccco1)N(CCC(c1ccccc1)c1ccco1)Cc1ccco1 (configuration not stated) | ? | -3% | nt | -6%
CN(Cc1ccccc1)c1ccc2nnc(-c3ccccc3)n2n1 | 0.6% | -14% | -7 | 12%
O=c1[nH][nH]cc1C=NCc1cccc(C(F)(F)F)c1 | -5.6% | -10% | -4 | -1%
O=S(=O)(O)c1ccc2c(c1)C(C(Cl)(Cl)Cl)OC(C(Cl)(Cl)Cl)O2 (configuration not stated) | 2.8% | 17% | nt | nt
CCOc1ccc(N(CC(=O)NCc2ccccc2C)S(C)(=O)=O)cc1 | 0.1% | -3% | nt | -51%
Cc1cc(C)c(S(=O)(=O)Cc2ccccc2)c(Cl)n1 | -1.8% | 1% | nt | -2%
CN(CC(=O)Nc1c(Cl)cccc1Cl)C(=O)CNC(=O)c1ccco1 | 3.3% | -10% | nt | nt
COc1cc(NC(=O)CSc2nccc(C)n2)c(C)cc1[N+](=O)[O-] | -0.8% | -1% | -3 | -28%
CC(=O)NS(=O)(=O)c1ccc(NC(=O)c2cc3c(=O)n4ccccc4nc3s2)cc1 | ? | -15% | 1 | -4%
O=C(Nc1ccc(Cl)cc1)N1CCCC(Cn2cccc2)C1 (configuration not stated) | -0.6% | 0% | 5 | -19%
Cc1csc2nc(CNS(=O)(=O)N(C)C)cn12 | 0.0% | 0% | -9 | -12%
Cc1cc(NC(=O)CSc2nnc(-c3c[nH]c4ccccc34)n2-c2ccc(Cl)cc2)no1 | -2.0% | 4% | -2 | -3%
Cc1ccc(C)c(N2CCN(C(=O)CCc3nc(-c4ccccc4F)no3)CC2)c1 | 6.6% | ? | nt | nt
O=C(Nc1ccc2c(c1)OCO2)c1cccc(S(=O)(=O)N2CCCC2)c1 | 2.1% | 3% | 1 | -7%
CCCC(=O)Nc1ccc2c(c1)nc(CN1CCCC1)n2C | 5.7% | 22% | 7 | -5%
O=C(CSc1nnc(CCCN2C(=O)c3cccc4cccc(c34)C2=O)n1-c1ccccc1)N1CCCCC1 | -2.0% | -10% | -2 | -9%
O=C(Nc1ccc2c(c1)nc1n2CCOC1)c1ccccc1 | -3.5% | -4% | 7 | -60%
CCc1ccc(NC(=O)c2noc3c2CCC3)cc1 | -3.1% | 3% | 12 | -29%
Clc1ccc(-c2csc(Nc3ccccc3)[n+]2Cc2ccco2)c(Cl)c1 | -2.0% | 21% | -28 | -49%
O=C1NCC(COCc2ccco2)O1 (configuration not stated) | -0.9% | -7% | 5 | 0%
O=C(COc1ccc(N2C(=O)c3ccccc3C2=O)cc1)c1ccccc1 | -0.3% | 28% | 5 | 0%
COc1cc(OC)cc(C(=O)N[C@H](C(=O)Nc2nc3c(s2)CCCC3)C(C)C)c1 | 0.9% | 9% | 0 | -20%
CC(C)(C)OC(=O)C[C@@H]1C/C=C\C[C@@H](CC(=O)NCCO)C(=O)N[C@H](Cc2c[nH]c3ccccc23)COC1=O | 1.0% | 2% | nt | nt
CCOC(=O)COc1cccc2c(=O)n(CC(=O)N3CCCCC3)ccc12 | -1.1% | -21% | 3 | -6%
CCSc1ccc2nnc(-c3ccc(F)cc3)n2n1 | -0.7% | -3% | 2 | -22%
O=C1CCCC/C=C\C[C@H](CC(=O)N(CCO)Cc2ccccc2)C(=O)NC[C@H](c2ccccc2)O1 | -0.6% | -6% | nt | nt
O=C(COc1ccc(F)cc1)Nc1nnc(C2CCCCC2)s1 | 0.2% | -11% | nt | -3%
Nc1c(NCc2ccccc2)c2ccccc2oc1=O | -0.3% | 16% | -3 | -11%
O=C(Nc1ccc(F)c(Cl)c1)c1nsc(Cl)c1Cl | -3.9% | -12% | -6 | -30%
Cc1cccc(NS(=O)(=O)c2ccc(C)c(C(=O)NCc3cccnc3)c2)c1 | -1.4% | -9% | nt | nt
Cc1ccc(C2CC(c3cccs3)=NN2C(=O)c2ccco2)o1 (configuration not stated) | 1.2% | 0% | 11 | -2%
COc1ccc(OCC(=O)OCC(=O)N2C(C)CCCC2C)cc1 (configuration not stated) | 1.8% | 0% | nt | nt
Cc1ccnc(SCC(N)=O)n1 | 0.2% | -4% | 6 | 0%
CCOC(=O)C1CCN(Cc2cccc(Oc3ccc(Cl)cc3)c2)CC1 | -1.0% | 10% | nt | 4%
O=C(NCCc1cccs1)C(c1ccccc1)c1ccccc1 | 1.5% | -4% | nt | 2%
Cc1ccc(S(=O)(=O)N(CC(=O)NCc2ccncc2)C2CCCCC2)cc1 | -1.4% | 11% | 0 | -1%
Cc1cccc(OCCCC(=O)NNC(=O)CCN2CCN(c3ccccc3)CC2)c1 | 1.1% | 18% | nt | nt
OC(c1ccccc1)(c1ccccc1)C1CCN(C(=S)Nc2ccc(F)cc2)CC1 | -0.8% | 16% | nt | nt
Cc1cccc(CSc2ccc(-c3cccs3)nn2)c1 | 0.7% | 1% | 2 | -70%&-59%
Cc1[nH]n(C(N)=S)c(=O)c1N=Nc1ccc(Cl)cc1Cl | -0.7% | 17% | nt | -54%

Compound activity (PubChem)
